Measles inh – inhibitors of measles virus growth in cells, primary screen, measles RdRp inhibitor project, cell-based, single point, HTS; 0.1% of 33,000 active; z-score (concentration not given with the values); infected Vero cells, GFP fluorescence, 64 h; stronger effect = lower value;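 active means z-score under -3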;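 further: score is relative to mean and SD of the compound wells of a plate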
* hit, by the source's call. A portion of the library; rates above refer to the full screens.

molecule,Measles inh
CCOc1ccc(NC(=O)c2cccc(Cl)c2)c([N+](=O)[O-])c1,-1.3
NC(CSCc1cccc(Br)c1)C(=O)O (stereo unspecified),0.56
O=C(NCc1ccc(F)cc1)c1ccc2c(c1)N(Cc1ccccc1)C(=O)c1ccccc1S2,0.52
Cc1sc2nc3ccc(C(=O)N(C)Cc4ccccc4)cn3c(=O)c2c1C,0.02
O=C(c1nn2c(c1Cl)NC(c1ccc(Br)cc1)CC2C(F)(F)F)N1CCN2CCCC2C1 (stereo unspecified),0.29
COc1ccc(CCNS(=O)(=O)c2ccc3[nH]c(=O)sc3c2)cc1OC,-1.4
CCc1ccccc1NC(=O)C(=O)NCCc1ccccc1Cl,0.66
COc1ccc(OC)c(NS(=O)(=O)c2ccc3c(c2)CCCN3C(C)=O)c1,0.59
CC(=O)Oc1ccc2c3c(c(=O)oc2c1)CCC3,0.97
CCOC(=O)c1c(NC(=O)CC23CC4CC(CC(Br)(C4)C2)C3)sc2c1CCCC2,0.48
O=C(CSc1nc2cc3c(cc2c(=O)n1CCC(=O)N1CCN(c2ccccc2)CC1)OCO3)c1ccc(Cl)cc1,-1.6
CCc1ccc2oc(-c3ccc(C)c(NC(=O)c4ccc(F)cc4)c3)nc2c1,2.3
CCOC(=O)c1c(NC(=O)c2cc([N+](=O)[O-])ccc2Cl)sc(C)c1C,0.53
COc1ccc(OCC(=O)NCCC23CC4CC(CC(C4)C2)C3)cc1,0.12
Nc1cccc2c1C(=O)N(c1ccccc1O)C2=O,1.2
COc1cccc(C2CC(=O)C3=C(C2)Nc2ccccc2NC3c2cc3c(cc2Br)OCO3)c1 (stereo unspecified),-0.01
CCN(CC)c1ncnc2sc(C(=O)Nc3ccccc3F)c(C)c12,0.08
C=CCN(c1ccccc1)S(=O)(=O)c1ccc2nc(-c3ccccc3)[nH]c2c1,-0.23
O=C(CCn1nc(-c2ccccc2)c2ccccc2c1=O)NCc1cccnc1,-0.43
CCOCCCNC(=O)c1ccc2c(c1)N=C(CC)c1cc(Cl)ccc1S2,-1.1
COc1cc(N/C(=N/c2nc(C)cc(C)n2)NC(C)=O)c(OC)cc1Cl,0.92
CC(C)c1ccc(S(=O)(=O)Nc2ccc3oc4c(c3c2)C(=O)CCC4)cc1,-0.28
Cc1cc(C)n(C(=O)CCC(=O)O)n1,-0.4
O=[N+]([O-])c1ccc(N2CCN(CCO)CC2)cc1NCc1ccc(Cl)cc1,-0.56
CCOc1ccc(-n2nc3ccc(NC(=O)c4ccccc4F)cc3n2)cc1,-0.07
COc1cccc(C2C3=C(Nc4ncnn42)c2ccccc2OC3c2ccccc2F)c1 (stereo unspecified),-0.13
O=C(Nc1ccccc1Oc1ccccc1)c1ccc(S(=O)(=O)N2CCCC2)cc1,-0.87
COCCOC(=O)C1=C(N)OC2=C(C(=O)CC(C)(C)C2)C1c1cccnc1 (stereo unspecified),0.87
COc1ccc(C2C3=C(CC(C)(C)CC3=O)Nc3nc(SC)nn32)c(OC)c1OC (stereo unspecified),-0.44
O=c1c2ccccc2nc2c3ccccc3c(NCc3ccco3)nn12,-0.53
Cc1ccc(NC(=O)Cn2c(=O)n(CC(=O)NCc3ccco3)c(=O)c3sccc32)cc1C,2.4
O=C(CSc1oc(-c2ccco2)nc1S(=O)(=O)c1ccc(Cl)cc1)NCC1CCCO1 (stereo unspecified),1.1
COc1ccc(CNC(=O)c2cc(-c3ccccc3)nc3ccccc23)cc1,0.17
CC(C)(C)c1ccc(C(=O)Nc2nnc(Cc3ccc(F)cc3)s2)cc1,-1.1
Cc1ccc(C)c(N2CCN(C(=O)c3cc4cc5ccc(C)cc5nc4o3)CC2)c1,-0.87
Cc1cc(N2CCN(C)CC2)nc2ccc(NC(=O)c3cccc([N+](=O)[O-])c3)cc12,-0.65
CCN(CC)S(=O)(=O)c1ccc2[nH]cc(C(=O)NCCC3=CCCCC3)c(=O)c2c1,-0.54
CCC(Sc1nc(-c2ccccc2)cc(-c2ccccc2)n1)C(=O)Nc1nnc(C)s1 (stereo unspecified),-0.31
Cc1c(C(=O)N2CC(C)CC(C)C2)cccc1[N+](=O)[O-] (stereo unspecified),-1.1
O=C(Nc1cc(Oc2ccc(I)cc2)cc([N+](=O)[O-])c1)c1ccc(F)cc1,-0.74
O=C(NCCCN1CCOCC1)c1ccc(-n2c(=S)[nH]c3ccccc3c2=O)cc1,-0.42
CCN(CC)CCn1c(OC)cc(=O)[nH]c1=O,0.4
CCCS(=O)(=O)N1CCC(C(=O)NCc2ccccn2)CC1,-0.07
C=CCN(C(=O)c1cc2cc3ccc(OC)cc3nc2s1)c1ccccc1,2.1
CCC1CCCCN1CCCNC(=O)c1cn(C2CCCCC2)c(=O)c2c1c1ccccc1n2C (stereo unspecified),-2.1
CCOC(=O)c1ccc(-n2c(CN3CCCCC3)nc3ccc([N+](=O)[O-])cc3c2=O)cc1,0.92
COC(=O)CNC1CC(=O)N(c2ccc(C(=O)OC)cc2)C1=O (stereo unspecified),-0.39
CC(C)c1ccc(NC(=O)c2ccc(F)c(S(=O)(=O)N3CCc4ccccc43)c2)cc1,1.8
CC(=O)Nc1cc(C(=O)N2CCc3ccccc3C2)ccc1Sc1ccc(Cl)cc1,-1.1
COc1ccc(NC(=O)C(C)N(c2ccccc2)S(C)(=O)=O)c(OC)c1 (stereo unspecified),0.93
COC(=O)c1cnc(Nc2ccc(Cl)cc2OC)c2ccccc12,1.4
Cc1ccc(NC2OCC(O)C(O)C2O)cc1[N+](=O)[O-] (stereo unspecified),-0.52
Cc1ccc(S(=O)(=O)Nc2ccc(N(C)C)cc2)cc1,1.5
CC1CC(C)CN(S(=O)(=O)c2ccc(F)c(C(=O)NCc3ccccc3)c2)C1 (stereo unspecified),-0.44
Cc1cccc(NC(=O)c2ccccc2NC(=O)c2ccc([N+](=O)[O-])cc2)c1,-0.08
CCCCSc1nnc2c(n1)OC(c1ccc(N(C)C)cc1)N(C(C)=O)c1ccccc1-2 (stereo unspecified),-1.9
CC(C)Cn1cnc2oc(-c3ccccc3)c(-c3ccccc3)c2c1=N,-0.26
O=C(O)c1ccc(N2C(=O)CSC2c2cccc([N+](=O)[O-])c2)cc1 (stereo unspecified),0.22
O=C(Nc1c2c(nn1-c1ccc([N+](=O)[O-])cc1)CSC2)C1CCCC1,-0.2
O=C(COc1ccc(Br)cc1)Nc1ncc(Cc2ccc(F)cc2)s1,-0.03

The final 7 compounds of the section before are carried over, then new ones follow.
molecule,Measles inh
CC1CC(C)CN(S(=O)(=O)c2ccc(F)c(C(=O)NCc3ccccc3)c2)C1 (stereo unspecified),-0.44
Cc1cccc(NC(=O)c2ccccc2NC(=O)c2ccc([N+](=O)[O-])cc2)c1,-0.08
CCCCSc1nnc2c(n1)OC(c1ccc(N(C)C)cc1)N(C(C)=O)c1ccccc1-2 (stereo unspecified),-1.9
CC(C)Cn1cnc2oc(-c3ccccc3)c(-c3ccccc3)c2c1=N,-0.26
O=C(O)c1ccc(N2C(=O)CSC2c2cccc([N+](=O)[O-])c2)cc1 (stereo unspecified),0.22
O=C(Nc1c2c(nn1-c1ccc([N+](=O)[O-])cc1)CSC2)C1CCCC1,-0.2
O=C(COc1ccc(Br)cc1)Nc1ncc(Cc2ccc(F)cc2)s1,-0.03
O=C(Nc1ccc(Cl)cc1)c1cc2n(n1)C(C(F)(F)F)CC(c1ccc3c(c1)OCO3)N2 (stereo unspecified),1.3
CC(=O)Oc1ccc(C(=O)Nc2ccccc2C(F)(F)F)cc1,-0.28
O=C(Cc1ccc(Cl)cc1)c1ccc(O)cc1O,-1
Cc1ccc2ncnc(Nc3ccc(I)cc3)c2c1,-0.97
Cn1c(CN2CCOCC2)c(C#N)c2ccccc21,-0.19
CCOc1ccc(-c2nc(-c3ccc([N+](=O)[O-])cc3)no2)cc1,-0.23
COc1cc2ccccc2cc1C(=O)Nc1ccc2oc(-c3cccc4ccccc34)nc2c1,0.16
CC(=O)Nc1[nH]c(O)c2ccccc12,1.3
O=C(NCCCN1CCN(c2cccc(Cl)c2)CC1)C1CCC(=O)N1Cc1ccccc1Cl (stereo unspecified),1.8
CN(C)C(=O)c1c2c(nc3ccccc13)CCCC2,-0.34
Cc1ccc2oc(-c3cc(N)ccc3Cl)nc2c1,-1.1
CC(C)(C)n1nc2c(c1NC(=O)c1ccc3c(c1)OCO3)CS(=O)(=O)C2,0.82
COC(=O)c1ccc(C=Nc2ccc(S(=O)(=O)Nc3ccccn3)cc2)cc1,-0.06
CCc1ccc(Oc2c(C(F)(F)F)oc3c(CN4CCCCC4)c(O)ccc3c2=O)cc1,-0.56
CC1=C(C(=O)OCc2ccccc2)C(c2cccc(O)c2)C2=C(CC(C)(C)CC2=O)N1 (stereo unspecified),-1.2
CC(C(=O)Nc1ccc(Oc2ccccc2)cc1)(C(F)(F)F)C(F)(F)F,-0.57
COc1ccc(C2CC(=O)c3c([nH]c(C(=O)OCCOc4ccccc4)c3C)C2)cc1 (stereo unspecified),-0.65
COc1ccc(OCC(=O)Nc2ccc(-c3nc4ccccc4o3)cc2)cc1,1.1
CC(C)CCNC(=O)CSc1nc2ccsc2c(=O)n1Cc1ccc2c(c1)OCO2,-0.28
COc1ccc(C2CS(=O)(=O)CS(=O)(=O)C2)cc1,-0.26
CC(C)Cc1nnc(NC(=O)c2cccc(Cl)c2)s1,0.43
O=C(CSC1=NC(=O)C(c2ccccc2)C(=O)N1)Nc1nc(-c2ccccc2)cs1 (stereo unspecified),1.6
O=C1c2ccccc2C(=O)N1CC(O)COc1ccc2ccccc2c1 (stereo unspecified),-0.56
Cc1ccc2[nH]c3nc(SCC(=O)O)nnc3c2c1,-0.71
CC(=O)C1=C(O)C(=O)N(CCCN2CCOCC2)C1c1ccc(C)cc1 (stereo unspecified),-0.85
CC(C)(C)OC(=O)C1C(=O)CC(C)(O)C(C(=O)OC(C)(C)C)C1c1cccc(O)c1 (stereo unspecified),0.12
O=C(NCCc1ccccc1)c1ccccc1Cl,0.43
CC(C)NC(=O)c1cnn2c1NC(c1cccs1)CC2C(F)(F)F (stereo unspecified),-0.59
CC(C)CCC1=NN(C(=O)c2ccccc2O)C(O)(C(F)(F)F)C1 (stereo unspecified),-1.4
O=C(CSc1nc2ccccc2c(=O)n1CC1COc2ccccc2O1)c1ccc(Cl)cc1 (stereo unspecified),-0.46

Some of these compounds in order of their number in Measles inh, ascending.
molecule,Measles inh
CN(C)C(=O)c1c2c(nc3ccccc13)CCCC2,-0.34
CCOc1ccc(-c2nc(-c3ccc([N+](=O)[O-])cc3)no2)cc1,-0.23
O=C(NCCCN1CCN(c2cccc(Cl)c2)CC1)C1CCC(=O)N1Cc1ccccc1Cl (stereo unspecified),1.8

Next part:
smiles	Measles inh
CCOc1ccccc1C1C=C(c2ccc(I)cc2)Nc2ncnn21 (stereo unspecified)	-0.19
O=C(CCCn1c(=O)[nH]c2ccccc2c1=O)Nc1ccc(Cl)cc1	-0.56
CC1Sc2sc(=S)sc2SC(C)C1=O (stereo unspecified)	-0.56
CCOC(=O)C1CCN(C(=O)Cc2c(C(=O)O)n(C)c3ccccc23)CC1	0.22
Cc1ccc(NC(=O)Cn2nnc(-c3ccccc3)n2)c(C)c1	0.31
CC(=O)c1c(C)oc2c1cc(O)c1ccccc12	1.3
CCOCCCNC(=O)C1CCCN(S(=O)(=O)CC)C1 (stereo unspecified)	1.3
CCCc1cc(=O)[nH]c(SCC(=O)Nc2ccccc2Cl)n1	-0.27
O=C(O)CN1C(c2ccccc2O)Nc2ccc(Br)cc2C1c1ccccc1 (stereo unspecified)	-0.77
Nc1nc(CSCCO)nc(Nc2ccccc2)n1	-0.23
O=c1[nH]cc(CN2CCOCC2)c(=O)[nH]1	-0.48
CC(C)(C)NC(=O)c1nn2c(c1Cl)NC(c1ccco1)CC2C(F)(F)F (stereo unspecified)	-0.09
Cc1ccc2c(c1)C1C=CCC1C(c1ccncc1)N2 (stereo unspecified)	1.4
CCOC(=O)c1cnc2ccc(OC)cc2c1NCCO	-0.17
Cc1cccc(C)c1NC(=O)C(=O)NCCc1ccccc1	-0.18
CCOc1ccc(S(=O)(=O)NCCC23CC4CC(CC(C4)C2)C3)c2ccccc12	-1.3
Cc1ccc(-n2nc3c(c2NC(=O)c2ccc(S(=O)(=O)N4CCCC4)cc2)CS(=O)C3)cc1 (stereo unspecified)	0.85
Cc1ccc(-c2ccc(=O)n(CCC(=O)NCc3ccccn3)n2)cc1	1.3
O=c1c2c3c(sc2n(Cc2cc(=O)n4ccccc4n2)c(=O)n1-c1ccccc1)CCCC3	0.43
O=C1OC(Nc2ccccc2Br)c2ccccc21 (stereo unspecified)	-0.21

Reprinted at random: 3 records from the list, in no set order.
smiles	Measles inh
CCOc1ccc(S(=O)(=O)NCCC23CC4CC(CC(C4)C2)C3)c2ccccc12	-1.3
Nc1nc(CSCCO)nc(Nc2ccccc2)n1	-0.23
CC1Sc2sc(=S)sc2SC(C)C1=O (stereo unspecified)	-0.56

(continued)
smiles	Measles inh
COc1ccc(C2CC(=O)n3nc(-c4ccc(F)cc4)nc3S2)cc1OC (stereo unspecified)	0.59
O=C(CSc1nnc(-c2ccc(Cl)cc2)o1)N1CCCC1	0.51
CCCNC(=O)c1nn2c(c1Br)NC(c1cccs1)CC2C(F)(F)F (stereo unspecified)	-0.97
O=C(Nc1c2c(nn1-c1ccccc1)CSC2)c1ccc(S(=O)(=O)N2CCCCC2)cc1	1.5
Cc1ccc(-n2c(=O)c3sccc3n(CC(=O)NCc3ccccc3Cl)c2=O)cc1F	-1
Cc1ccc(C2CC(C(F)(F)F)n3nc(C(=O)Nc4ccc(Cl)c(C(F)(F)F)c4)cc3N2)cc1 (stereo unspecified)	-1.3
CCOC(=O)CC(=O)Nc1sc2c(c1C(=O)OC)CCCC2	-0.2
O=[N+]([O-])c1ccccc1S(=O)(=O)N1CCN(S(=O)(=O)c2ccc(F)cc2)CC1	-0.84
CCCc1ccc(Oc2c(C)oc3cc(OCC)ccc3c2=O)cc1	0.04
COc1ccc(OC)c2[nH]c(=O)c(CCNC(=O)C3c4ccccc4Oc4ccccc43)cc12	-0.14
CCOC(=O)c1cnc2c(C)c(Cl)ccc2c1Nc1cccc(C(F)(F)F)c1	-1.3
Cc1c(NC(=O)c2ccccc2I)cccc1-c1nc2ncccc2o1	0.46

Bioassay records: PubChem, Emory University Molecular Libraries Screening Center
